# High-throughput results: PubChem, National Center for Advancing Translational Sciences (NCATS)
# NS1 inh: qHTS Assay for Inhibitors of Influenza NS1 Protein Function; 270,000 compounds, 0.4% hits; S. cerevisiae slowed by influenza A NS1, growth recovery by OD600; Potency, µM (titrated, usually from 46.1 µM), for the others: at the highest dose activity, positive = more growth; active means well fitted rising curve with a large enough effect; inconclusive means small, poorly fitted or top-dose-only effect; inactive means no such curve, though single readings can be large or run the other way; further: nearly all actives have a fitted effect of over 50% in size
#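 Compounds were scored for reversing the slow growth caused by influenza A NS1 in S. cerevisiae, measured by optical density at 600 nm. Assay medium contained 2% galactose at pH 6.0; NS1-free yeast of the same strain were the positive control.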
# SARS PLpro yeast: qHTS of Yeast-based Assay for SARS-CoV PLP | S. cerevisiae expressing SARS-CoV PLpro, growth rescue; control for the full effect not named in the record | Potency, µM (highest dose often 32.9 µM), inactives show at the top dose activity, positive = growth rescue | 330,000 compounds, 0.19% hits; active means well fitted rising curve with a large enough effect; inconclusive means small, poorly fitted or top-dose-only effect; inactive means no such curve, though single readings can be large or run the other way; further: 0% is about no effect; nearly all actives have a fitted effect of over 55% in size; growth read by luminescence after 48 h
# Cruzain inh noDet: qHTS Assay for Promiscuous and Specific Inhibitors of Cruzain (without detergent). Cruzipain (Trypanosoma cruzi), P25779. 200,000 compounds, 2.3% hits. Potency, µM, for inactives: max response, negative = inhibition, actives largely listed as inhibitors. purified cruzain, Z-FR-AMC fluorescence, no detergent;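 further: plate controls were enzyme without inhibitor for no effect and buffer without enzyme for full effect; nearly all actives have a fitted effect of over 40% in size; top concentration of the series not given in the record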
# Target sequence (P25779 123-467 limits assumed): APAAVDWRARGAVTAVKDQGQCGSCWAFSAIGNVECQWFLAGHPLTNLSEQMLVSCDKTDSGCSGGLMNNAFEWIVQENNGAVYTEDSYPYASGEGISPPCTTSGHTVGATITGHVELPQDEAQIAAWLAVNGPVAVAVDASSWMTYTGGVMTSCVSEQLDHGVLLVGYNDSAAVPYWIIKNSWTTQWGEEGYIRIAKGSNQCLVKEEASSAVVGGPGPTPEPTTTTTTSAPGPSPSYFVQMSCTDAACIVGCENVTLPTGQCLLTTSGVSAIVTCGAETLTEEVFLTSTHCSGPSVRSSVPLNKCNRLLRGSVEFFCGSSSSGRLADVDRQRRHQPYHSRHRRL
#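 Purified cruzain at 1.5 nM, pre-incubated 15 min with compound at room temperature in 100 mM sodium acetate pH 5.5, 5 mM DTT, 0.00005% Triton X-100. Reaction started with 2 uM Z-FR-AMC; AMC fluorescence increase over 60 s gives rate.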
# StopGo reporter: High Throughput Screening for Foot and Mouth Disease Virus Antivirals; human cells with a luciferase reporter of 2A StopGo recoding; control for the full effect not named in the record; 410,000 compounds, 1.2% hits; Potency, µM (highest dose often 57.9 µM), for the others: at the top dose signal change, negative = less light; AID 1159524, 2015; active = well fitted falling curve with a large enough effect; inconclusive = small, poorly fitted or top-dose-only effect; inactive = no such curve, though single readings can be large or run the other way; tested in HEK293T cells; further: on the % scale 0 is the no-effect control and ±100 the full control effect; nearly all actives have a fitted effect of over 45% in size; luciferase light after 4 h
# RE007 growth inh: qHTS Assay for Inhibitors of the HIV-1 protein Vpr; S. pombe RE007 Vpr strain, BacTiter-Glo ATP luminescence, 24 h; control for the full effect not named in the record; Potency, µM (series often up to 92.2 µM), for inactives: top-dose activity change, negative = less growth; 360,000 compounds, 0.21% hits; AID 651644, 2012; active = well fitted falling curve with a large enough effect; inconclusive = small, poorly fitted or top-dose-only effect; inactive = no such curve, though single readings can be large or run the other way;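 further: on the % scale 0 is the no-effect control and ±100 the full control effect; nearly all actives have a fitted effect of over 50% in size; the assay follows cell death caused by Vpr and the record does not say whether a fall means rescue or toxicity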
#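 Fission yeast RE007 carrying one integrated HIV-1 vpr copy, seeded at OD 0.01 in PMG+AL medium with 23 nL pinned compound. Grown 24 h at 30 degrees; viability read by BacTiter-Glo luminescence after 5 min.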
# MARV entry inh: qHTS for inhibitors of binding or entry into cells for Marburg Virus; Marburg virus pseudotyped entry inhibition, cell reporter; control for the full effect not named in the record; about a third of the inactives were read at about 46 µM; Potency, µM (series often up to 37.8 µM), for the others: at the top dose activity change, negative = inhibition, actives largely listed as inhibitors; 300,000 compounds, 1.8% hits; active = well fitted inhibition curve with a large enough effect; inconclusive = small, poorly fitted or top-dose-only effect, or effect the other way; inactive = flat fitted curve, though single readings scatter; tested in HEK293 cells; about a fifth of its hits are not listed in these tables; further: on the % scale 0 is the no-effect control and ±100 the full control effect; luciferase read-out
# Lassa entry inh: qHTS for Inhibitors of binding or entry into cells for Lassa Virus. Potency, µM (series often up to 37.9 µM), without a hit: top-dose activity change, negative = inhibition, hits mostly inhibitors. Lassa virus pseudotype entry inhibition, cell reporter; control for the full effect not named in the record. 300,000 compounds, 1.2% hits; active means well fitted inhibition curve with a large enough effect; inconclusive means small, poorly fitted or top-dose-only effect, or effect the other way; inactive means flat fitted curve, though single readings scatter; tested in HEK293 cells; further: on the % scale 0 is the no-effect control and ±100 the full control effect; nearly all actives have a fitted effect of over 50% in size; luciferase read-out
# Cruzain inh Det: qHTS Assay for Promiscuous and Specific Inhibitors of Cruzain (with detergent). AID 1478, 2009. purified cruzain, Z-FR-AMC fluorescence, 0.01% Triton. Potency, µM, without a hit: max response, negative = inhibition, hits mostly inhibitors. Cruzipain (Trypanosoma cruzi), P25779. 200,000 compounds, 0.43% hits;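 further: plate controls were neutral wells for no effect and buffer without enzyme for full effect; nearly all actives have a fitted effect of over 40% in size; top concentration of the series not given in the record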
#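 Compounds were screened in titration against cruzain (1.5 nM) with 0.01% Triton X-100 to counter colloidal aggregation. Activity was the AMC fluorescence increase over 60 s after adding 2 uM Z-FR-AMC at pH 5.5.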
# * marks the source's active call; other numbers are inactive results; u = inconclusive; x = no result given; & = joins results of further samples; [ ] = remark or other dose. Unless noted, the call rests on the fitted dose curve; in most records, active means well fitted curve in the direction sought with a large enough effect; inconclusive means small, poorly fitted or top-dose-only effect, or another doubt; inactive means no such curve, though single readings can be large; an effect the other way counts as inactive or inconclusive. Potency means the concentration at half of the fitted maximal effect. Random draw from the library; any-hit rate near 4.7%.
No.	Molecule	NS1 inh	SARS PLpro yeast	Cruzain inh noDet	StopGo reporter	RE007 growth inh	MARV entry inh	Lassa entry inh	Cruzain inh Det
1	Cc1ccc(C(=O)Cn2nnc3ccccc32)cc1C	-7%	-1%	-2%	x	-10%	u	u	-2.0%
2	N#CCCn1[nH]c(-c2ccccc2)cc1=O	13%	7%	14%	-14%	-6%	-16%	0%	-2.1%
3	Cc1cccc(NC(N)=S)c1	-6%	9%	-3%	x	7%	3%	10%	8.7%
4	Cc1ccc(C)c(N2CCN(C(=O)c3cc(S(=O)(=O)N4CCCCC4)cn3C)CC2)c1	x	x	-5%	-12%	x	x	-7%[46.1 µM]	0.7%
5	O=C1N/C(=N/N=C/c2ccccc2O)SC1Cc1ccc(F)cc1 (centres undefined)	-18%	-2%	x	-5%	4%	u	u	x
6	COc1cc([N+](=O)[O-])ccc1NC(=O)N1CCN(c2cc(-c3noc(C)n3)ccc2C)CC1	x	x	-4%	-27%	x	x	-17%[46.1 µM]	-2.0%
7	CCc1ccc(C2=C(C)C(N3CCC(C(=O)NCc4ccccc4)CC3)=NS2(=O)=O)cc1	x	x	-14%	-16%	x	x	16%[46.1 µM]	-0.7%
8	O=C1/C(=C/c2cccnc2)SC(=S)N1N1CCOCC1	-4%	-1%	x	-15%	28%	x	x	x
9	CCc1cccc(NC(=O)c2coc(=O)c3ccccc23)c1	x	x	7%	60%[activator]	x	u	-26%[46.1 µM]	-6.2%
10	CC1CN(c2snnc2C=C2C(=O)OC(C)(C)OC2=O)CC(C)O1 (centres undefined)	x	-3%	x	1%	4%	-1%[46.1 µM]	u	x
11	Cc1nnc(NS(=O)(=O)c2ccc(F)cc2)s1	x	x	x	-24%	-3%	15%[46.1 µM]	19%[46.1 µM]	x
12	Cn1c(=O)c2c(nc3n2CC(CO)O3)n(C)c1=O (centres undefined)	u	3%	x	-10%	-7%	19%[46.1 µM]	-4%[46.1 µM]	x

# Compounds from the list above that have a carbonyl joined to an NH by a bond outside any ring:
No.	Molecule	NS1 inh	SARS PLpro yeast	Cruzain inh noDet	StopGo reporter	RE007 growth inh	MARV entry inh	Lassa entry inh	Cruzain inh Det
6	COc1cc([N+](=O)[O-])ccc1NC(=O)N1CCN(c2cc(-c3noc(C)n3)ccc2C)CC1	x	x	-4%	-27%	x	x	-17%[46.1 µM]	-2.0%
7	CCc1ccc(C2=C(C)C(N3CCC(C(=O)NCc4ccccc4)CC3)=NS2(=O)=O)cc1	x	x	-14%	-16%	x	x	16%[46.1 µM]	-0.7%
9	CCc1cccc(NC(=O)c2coc(=O)c3ccccc23)c1	x	x	7%	60%[activator]	x	u	-26%[46.1 µM]	-6.2%

# Continuation.
No.	Molecule	NS1 inh	SARS PLpro yeast	Cruzain inh noDet	StopGo reporter	RE007 growth inh	MARV entry inh	Lassa entry inh	Cruzain inh Det
13	CC(NS(C)(=O)=O)C(c1cccs1)N1CCN(c2ccc(F)cc2)CC1 (centres undefined)	-2%	4%	-3%	-21%	-8%	3%	11%	0.0%
14	Cc1occc1-c1nnc(SCC(=O)N2c3ccccc3CCc3ccccc32)n1C	-9%	3%	0%	-24%	4%	-2%	-15%	2.7%
15	O=C(c1n[nH]c2c1CCC2)N1CCCC(Nc2cccc(F)c2)C1 (centres undefined)	12%	4%	x	7%	-7%	13%	30%	x
16	COc1ccc(N2COC3c4cccc5cccc(c45)C32)cc1 (centres undefined)	5%	3%	-11%	-13%	u	-37%	-18%	-6.9%
17	CCOCC(=O)Nc1c(C(=O)Nc2ccc3c(c2)OCO3)oc2ccccc12	4%	5%	x	9%	0%	u	0%[46.1 µM]	x
18	Cn1c(=O)c2c(nc(NCC3CCCO3)n2Cc2cccc(Br)c2)n(C)c1=O (centres undefined)	7%	2%	-5%	u	-9%	5%	u	4.3%
19	COc1ccc(CNC(=S)Nc2ccccc2C)cc1	-8%	u	1%	18%	-12%	u	-13%	1.1%
20	COc1ccc(OC(=O)c2cc(S(=O)(=O)N3CCCC3)ccc2Cl)cc1	1%	-8%	11%	x	-9%	22%	-20%	0.4%
21	N#CCC(N)=C(C#N)C#N	11%	14%	-6%	-17%	9%[18.4 µM]	u	11%	0.6%
22	COc1ccc2c(c1)CCc1c(C(=O)N3CCCc4ccccc43)noc1-2	-18%	-23%	-16%	-21%	-6%	u	-2%	-5.3%
23	O=C(CC1S/C(=N/N=C2CCCCCC2)NC1=O)Nc1ccccc1F (centres undefined)	-6%	-11%	x	-17%	0%	x	x	x
24	C/C(=N\NC(=S)NCCc1ccccc1)c1ccc(C)cc1	-7%	-22%	-12%	-9%	-32%	16µM*	u	-8.2%
25	O=C(COC(=O)c1ccco1)NCc1ccc(Cl)cc1	x	-3%	x	8%	-5%	19%[46.1 µM]	-1%[46.1 µM]	x
26	Cc1ccc(-c2cc(-c3nnc(SCC(=O)NC(C)C(C)C)n3N)c3ccccc3n2)cc1 (centres undefined)	-4%	3%	19%	8%	7%	7%	1%	-4.6%
27	Cc1nc(NCC2CCCO2)c2nnn(Cc3ccccc3Cl)c2n1 (centres undefined)	-13%	1%	11%	-7%	-2%	-28%	6%	-3.1%
28	Cc1cc(C)c(O)c(-c2cc(C(=O)Nc3cccnc3)[nH]n2)c1	1%	0%	x	-21%	1%	u	25%	x
29	Cc1cccc(OCCSc2nc3ccccc3n2CC(=O)O)c1	4%	0%	x	15%	-8%	x	x	x
30	Cc1cc(NC(=O)CSc2nc(C(C)C)nc3sc(C)c(C)c23)no1	2%	1%	11%	9%	10%	-20%	u	1.4%
31	CCN1/C(=C\C=C(C(C)=O)C(C)=O)Sc2ccccc21	x	1%	x	-5%	-24%	-2%[46.1 µM]	-20%[46.1 µM]	x
32	Cc1ccc(Cc2cnc(NC(=O)CN3CCOCC3)s2)cc1Cl	4%	-3%	u	x	15%	-16%	-6%	-8.1%
33	CC1(OC(=O)c2ccc(Cl)nc2)C(=O)C=C2C=C3CCCN3C=C2C1=O (centres undefined)	5%	-3%	x	-9%	-13%	2%&2%[14.2 µM]	x	x
34	Cc1nc(CS(=O)c2ccc(Cl)cc2)cc(NCc2ccc(Cl)cc2Cl)n1 (centres undefined)	-52%	-4%	13%	u	-11%	-32%	-12%	1.5%
35	O=C(c1cccnc1)N1CCN(S(=O)(=O)c2cccs2)CC1	1%	27%	x	-7%	-2%	-11%[46.1 µM]	12%[46.1 µM]	x
36	CC(OC(=O)c1ccco1)C(=O)Nc1ccc(Cl)cn1 (centres undefined)	x	-5%	x	1%	-6%	-7%[46.1 µM]	4%[46.1 µM]	x
37	COc1cc(C(=O)N/N=C/c2ccc(OC(=O)N3CCOCC3)cc2)cc(OC)c1OC	-14%	-2%	7%	-13%	16%	u	u	-6.3%
38	CC(C)(C)C(=O)NNc1nc(-c2ccccc2)c2cc(Br)ccc2n1	-18%	-8%	4%	-25%	18%	u	-18%	-9.5%
39	CCOc1cc(NC2CS(=O)(=O)CC2O)c(OCC)cc1NC(=O)c1ccccc1 (centres undefined)	4%	-7%	1%	4%	7%	-1%	-1%	1.3%
40	CCOC(=O)Nc1cccc(OCC(=O)Nc2ccccc2OCC)c1	0%	-4%	-4%	-28%	-6%	-13%	-9%	-3.0%
41	Brc1cccc(-c2nnc3sc(CNCc4ccco4)cn23)c1	-49%	-8%	-2%	3%	2%	x	x	-1.3%
42	COc1cccc(NC(=O)CC2NCCNC2=O)c1 (centres undefined)	x	x	2%	-15%	x	-11%[46.1 µM]	25%[46.1 µM]	-2.4%
43	Cc1ccc2c(C(=O)CN3CCN(C(=O)c4ccco4)CC3)c(C)[nH]c2c1	-5%	0%	x	-6%	0%	-17%	-1%	x
44	O=C(Nc1cccc(NC(=O)c2ccco2)c1)c1ccccc1	-5%	-4%	x	-7%	-1%	6%[46.1 µM]	-3%[46.1 µM]	x
45	Cn1c(=O)c2c(nc(Br)n2CC(=O)C23CC4CC(CC(C4)C2)C3)n(C)c1=O	-32%	2%	2%	u	3%	18µM*	u	-4.4%
46	CCCCc1nn2c(=O)cc(COC(=O)c3cccs3)nc2s1	x	x	4%	32%[activator]	x	x	u	-2.0%
47	COc1ccccc1CC(=O)O/N=C(\N)c1ccccn1	-3%	-1%	x	24%	0%	x	x	x
48	CC(C)N(C(=O)CSc1nnc(CNc2ccc(F)cc2)o1)C(C)C	3%	6%	7%	-26%	5%	-20%	-16%	-0.7%
49	Cc1ccc(S(=O)(=O)NCCC(=O)NNC(=O)c2ccccc2Cl)cc1C	x	-1%	x	24%	-6%	u	-1%	x
50	CN(C(=O)/C=C/c1cnc2ccccc2c1)C1CCCCC1	x	-4%	x	-25%	4%	u	u	x
51	Cc1ccc(S(=O)(=O)C2(C(=O)Nc3cccnc3)CC2)cc1	u	8%	9%	-15%	20%	x	x	6.5%
52	CCCOc1ccc(N2C(=O)CC(N3CCN(c4ccccc4F)CC3)C2=O)cc1 (centres undefined)	-8%	-8%	u	x	-16%	1%	13%	0.1%
53	CCCOc1ccc(C(=O)NCC2OCCc3ccccc32)cc1 (centres undefined)	x	x	-5%	27%	x	4%[46.1 µM]	10%[46.1 µM]	-3.6%
54	N#Cc1c(NC(=O)CSc2ccccn2)oc(-c2ccccc2)c1-c1ccccc1	4%	6%	u	-10%	-7%	1%	0%	1.5%
55	COc1cccc(-c2cc3c(=O)n(-c4ccccc4)c(=S)[nH]c3s2)c1	17%	19%	-21%	11%	7%	-3%	-2%	-8.8%
56	CSc1c(C#N)c(N)nc2sc(C(=O)c3ccccc3)c(N)c12	13%	0%	x	-6%	6%	14%[46.1 µM]	-12%	x
57	Cc1sc2ncnc(NCCc3ccc(S(N)(=O)=O)cc3)c2c1C	1%	9%	1%	11µM*	9%	u	u	0.8%
